# Menin MLL FP FL: qHTS Assay for Inhibitors Targeting the Menin-MLL Interaction in MLL Related Leukemias: Competition With Fluorescein Labeled MLL-derived Peptide | Fluorescence polarization, fluorescein-MLL peptide displacement from menin | FP activity change, % at 61.4 µM | 290,000 tested, under 10 active | AID 1766, 2009; inconclusive = falling polarisation curve, or a change in total fluorescence; inactive = total fluorescence flat and polarisation flat or rising; no compound was filed as active; the % refers to the polarisation; negative = inhibition;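 also: % of control where 0% means no effect; inhibitors lower the polarisation; unlabelled MLL peptide was the positive control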
# Sfp PPTase inh: qHTS Assay for Inhibitors of Bacillus subtilis Sfp phosphopantetheinyl transferase (PPTase); 4'-phosphopantetheinyl transferase ffp (Bacillus subtilis), Q9F4F7; Biochemical Sfp PPTase activity, qHTS; Potency, µM, for the others: max response, negative = inhibition, hits mostly inhibitors; 310,000 compounds, 3.5% hits; AID 1490, 2009; active = well fitted inhibition curve with a large enough effect; inconclusive = small, poorly fitted or top-dose-only effect, or another doubt; inactive = no such curve, though single readings can be large or run the other way;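 also: the enzyme is Sfp with the accession as filed and its product quenches rhodamine fluorescence; potency is read from the fitted curve at half-maximal effect; 0% = enzyme reaction without inhibitor and -100% = no enzyme wells; top concentration of the series not given in the record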
#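 Step 1, compound plus 15 nM Sfp-PPTase, 15 min, room temperature. Step 2, add rhodamine-CoA (5 uM) and BHQ-2-YbbR (12.5 uM). Step 3, read 525/598 nm fluorescence at 0 and 30 min.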
# TRPV1 PAM: HTS Assay for Compounds that Act as Potentiators of the Vanilloid Receptor 1; Transient receptor potential cation channel subfamily V member 1 (Homo sapiens), Q8NER1; TRPV1-expressing cells, Fluo-8 calcium influx, capsaicin EC20 potentiation; host cell line not named in the record; control for the full effect not named in the record; potentiation, % at 8.33 µM; 320,000 compounds, 0.02% hits; active means potentiation above 80%; inconclusive means 30% to 80%; inactive means below 30%; also: 0% is about no effect
#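 TRPV1-expressing cells were cultured overnight at 35.5C and loaded with Fluo-8 calcium dye for 40 to 90 min at room temperature. After a 10 s baseline, compound was added and calcium influx was read kinetically for 3 min (ex 480/em 520 nm).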
# gsp agonist: qHTS for Agonist of gsp, the Etiologic Mutation Responsible for Fibrous Dysplasia/McCune-Albright Syndrome: qHTS; gsp mutant cells, cAMP HTRF, 30 min; control for the full effect not named in the record; Potency, µM (highest dose often 76.9 µM), inactives show top-dose activation (cAMP increase), hits mostly activators; 340,000 compounds, 0.13% hits; active = well fitted activation curve with a large enough effect; inconclusive = small, poorly fitted or top-dose-only effect, or another doubt; inactive = no such curve, though single readings can be large or run the other way; cell line not stated here;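 also: phosphodiesterase inhibitor Ro 20-1724 added with compounds to block cAMP breakdown; potency is read from the fitted curve at half-maximal effect; nearly all actives have a fitted effect of over 60% in size; about a fifth of the inactives were tested at one dose only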
#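 Cells stably selected in G418 were plated at 2000/well, grown 16-24 hr, then given compounds in DMSO with the PDE inhibitor […] (300 uM solution added) for 30 min at 37C; cAMP was read by HTRF.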
# ClpP mod: qHTS Assay for Activators of ClpP; ATP-dependent Clp protease proteolytic subunit (Bacillus subtilis (strain 168)), P80244; purified B. subtilis ClpP, FRET peptide cleavage, 20 min; Potency, µM (doses to about 57.5 µM), inactives show top-dose activity change, negative = active; 340,000 compounds, 1.9% hits; AID 651965, 2013; active = well fitted falling curve with a large enough effect; inconclusive = small, poorly fitted or top-dose-only effect; inactive = no such curve, though single readings can be large or run the other way; also: potency is read from the fitted curve at half-maximal effect; the source files actives as falling curves though it sought activators and does not explain the sign; nearly all actives have a fitted effect of over 65% in size; many hits overshoot -100%
# Target sequence (P80244 whole entry, looked up): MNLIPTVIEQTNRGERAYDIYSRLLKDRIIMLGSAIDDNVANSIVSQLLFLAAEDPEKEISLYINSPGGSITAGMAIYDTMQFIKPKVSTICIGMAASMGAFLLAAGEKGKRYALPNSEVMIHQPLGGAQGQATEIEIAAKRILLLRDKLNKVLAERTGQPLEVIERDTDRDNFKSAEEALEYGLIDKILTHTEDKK
#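 FRET quenching reversal measured ClpP activation: 10 microg/mL B. subtilis ClpP at pH 8 with the FRET-FV decapeptide, read at 430 nm after 320 nm excitation. The 20-min minus 0-min signal was scaled between DMSO/no-enzyme wells and ADEP (5.8 microM final).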
# D2 potentiator: Beta-Arrestin HTS for Positive Allosteric Modulators of the Human D2 Dopamine Receptor: Potentiators; 360,000 compounds, 0.23% hits; D(2) dopamine receptor (Homo sapiens), P14416; potentiation, % (no concentration beside the values); DiscoveRx D2 beta-arrestin cells, luminescence, 90 min; 100% = 57 uM dopamine signal; active = potentiation of 50% or more; inconclusive = 30% to 50%; inactive = 30% or less;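 also: compound concentration not given in the record; tested on top of an EC20 dose of dopamine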
# Target sequence (P14416 whole entry, looked up): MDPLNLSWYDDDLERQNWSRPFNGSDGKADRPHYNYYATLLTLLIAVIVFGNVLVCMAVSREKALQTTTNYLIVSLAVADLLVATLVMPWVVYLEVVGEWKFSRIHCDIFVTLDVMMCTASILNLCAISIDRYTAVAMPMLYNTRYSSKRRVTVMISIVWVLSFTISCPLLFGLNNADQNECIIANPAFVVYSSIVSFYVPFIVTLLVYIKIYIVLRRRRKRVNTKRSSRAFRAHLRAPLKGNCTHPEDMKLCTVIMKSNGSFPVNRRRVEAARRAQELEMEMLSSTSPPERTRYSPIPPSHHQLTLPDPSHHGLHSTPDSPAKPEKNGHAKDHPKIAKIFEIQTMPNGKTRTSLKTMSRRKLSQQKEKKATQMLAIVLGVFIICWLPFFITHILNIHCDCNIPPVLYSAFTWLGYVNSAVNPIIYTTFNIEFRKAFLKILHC
#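 D2 cells co-treated with compound plus 50 nM dopamine (EC20) for 90 min at 37 deg C to detect potentiation. Beta-arrestin recruitment was read as enzyme-fragment luminescence after 1 h at ambient temperature. Full response was set by 57 uM dopamine.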
# gsp antag: qHTS for Antagonists of gsp, the Etiologic Mutation Responsible for Fibrous Dysplasia/McCune-Albright Syndrome: qHTS | gsp-mutant cells, cAMP HTRF, 30 min; control for the full effect not named in the record | Potency, µM (doses to about 76.9 µM), for the others: top-dose activity change, negative = inhibition, hits mostly inhibitors | 340,000 compounds, 0.4% hits; active = falling curve of any shape with a large fitted effect; inconclusive = falling curve, mostly with a smaller effect; inactive = flat or rising curve; cell line not stated here;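 also: intracellular cAMP measured with PDE inhibitor Ro 20-1724 present during compound exposure; potency is read from the fitted curve at half-maximal effect; % is scaled to controls: 0 for no effect and ±100 for the full control effect; nearly all actives have a fitted effect of over 65% in size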
#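 HTRF cAMP measurement after 30 min RT detection following 30 min, 37C compound treatment alongside […] (added as 300 uM solution) in G418-selected cells seeded at 2000/well and grown 16–24 h.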
# * hit, by the source's call; ? = inconclusive; . = not tested or not shown; [ ] = remark or other dose.
canonical_smiles,Menin MLL FP FL,Sfp PPTase inh,TRPV1 PAM,gsp agonist,ClpP mod,D2 potentiator,gsp antag
CCc1ccc(N(CC(=O)NC2CC2)S(=O)(=O)c2ccc(C)cc2)cc1,.,7.3%,-7.8,-21.4%,-5.8%,-4.6,-7.1%
O=S(=O)(c1cnc(Cl)c(Br)c1)N1CCc2ccccc21,1.5,6.6%,.,-29.3%[15.4 µM],.,-3.7,-4.3%
CCC(C)NC(=O)CSc1nnc(-c2cc(OC)c(OC)c(OC)c2)c(-c2cc(OC)c(OC)c(OC)c2)n1 (stereo not given),0.9,2.5%,-4.7,-20.5%,-1.5%,-3.4,-13.9%
Cc1ccc(CN(C(=O)c2cccs2)C2CCS(=O)(=O)C2)cc1 (stereo not given),.,17.3%,-0.5,-9.5%,-0.1%,-2.1,1.6%
Cc1ccccc1Cn1nc(C)c(NC(=O)c2cc(-c3ccco3)on2)c1C,4.8,10.4%,-0.2,3.6%,-2.8%,-3.0,-6.4%
CN(C)S(=O)(=O)N1CCc2ccc(NC(=O)C3CCCO3)cc2C1 (stereo not given),0.8,13.5%,8.8,-16.0%[15.4 µM],-7.5%,-5.4,5.4%
Fc1ccc(N2CCN(C(=S)NCc3ccco3)CC2)cc1,-0.5,11.3%,-31.8,-15.4%[15.4 µM],.,-6.1,11.5%
CCOC(=O)c1c(C)[nH]c(C(=O)Cn2nnc(-c3ccc(Cl)cc3)n2)c1C,5.1,-9.6%,-19.9,-3.5%,-4.6%,-10.7,4.1%
c1ccc(CN2CCC(=NNc3nc4ccccc4[nH]3)CC2)cc1,-1.2,-6.2%,4.4,-6.5%[15.4 µM],.,-45.3,.
CCNC(=O)NC(=O)CSc1ccccc1F,-0.1,8.8%,10.3,?,-1.6%,-5.5,8.7%
CCOc1ccc(NC(=O)NCCCn2c(C)nc3cc(C)c(C)cc32)cc1,-1.3,2.2%,-12.5,?,-1.2%,-8.2,-25.3%
CCOc1ccc2[nH]c(=O)c(CN(CCO)Cc3nnnn3CCc3ccccc3)cc2c1,-5.0,-10.6%,9.5,18.7%,31.6µM*,-8.8,0.0%
CC(=O)N1CCc2c(sc(NC(=O)Cc3ccc(C)cc3C)c2C#N)C1,1.0,18.9%,6.0,-1.9%,-4.7%,2.4,5.3%
Cc1ccc(NC(=O)CSCC(=O)Nc2cccc3ncccc23)cc1,.,.,-37.1,0.2%[15.4 µM],-0.1%,-6.5,-8.1%
Cc1nn(-c2ccccc2C(F)(F)F)c(=O)c2noc(C)c12,0.0,15.7%,.,-13.7%,.,-2.9,11.0%
Cc1ccc(C)c(S(=O)(=O)N2CCN(C(=O)Cn3cnc4c3c(=O)n(C)c(=O)n4C)CC2)c1,.,10.9%,-19.8,25.2%,-2.1%,-10.0,-12.1%
Cc1nn(C)cc1S(=O)(=O)NCc1ccccc1Cl,-0.4,11.8%,-4.5,?,1.3%,-4.0,8.9%
O=C1CC(=O)c2c1cccc2[N+](=O)[O-],1.2,79.4µM*,4.3,.,.,.,.
CC(C)[N+](C)(C)CC#CC(O)(c1ccccc1)c1ccccc1,0.7,-10.0%,-0.6,16.3%[15.4 µM],-1.0%,3.7,4.3%
Cc1ccc(N2CC(C(N)=O)CC2=O)cc1C (stereo not given),0.5,10.0%,16.3,3.6%,2.8%,-9.9,18.7%
O=C(NCCCn1ccnc1)NC(C(F)(F)F)C(F)(F)F,1.4,12.5%,-0.9,?,-4.1%,-0.8,10.4%
O=C(Cc1ccccc1)NNS(=O)(=O)c1ccccc1[N+](=O)[O-],0.0,-1.4%,7.9,13.9%,.,-4.0,0.7%
Cc1ccc(NS(=O)(=O)c2ccc3c(c2)C(=O)c2ccccc2C3=O)c(C)c1,1.6,-27.9%,-1.8,-11.0%,1.0%,80.6*,-19.5%
CCOc1ccc(NC(=S)NC(=O)C2CCCC2)cc1,.,7.6%,0.7,-26.3%,3.2%,-5.7,-2.0%
COc1ccc(C(=O)N(C)CC2CCN(CCc3cccc(C(F)(F)F)c3)CC2)cc1C,-0.7,11.5%,-6.5,-18.7%,1.0%,-3.9,-3.1%
O=C(Cc1ccc(Cl)cc1)NNc1c(F)c(F)cc(F)c1F,6.8,13.6%,-13.5,8.8%,-1.0%,2.2,14.4%
COc1ccc2c(c1)C1NC(=S)NC(C)(O2)C1C(=O)Nc1ccc(Cl)cc1 (stereo not given),-0.9,7.7%,0.1,6.1%[15.4 µM],-5.4%,-10.4,-2.3%
COc1ccc(N(C2=NCCCS2)S(=O)(=O)c2ccc(C(C)(C)C)cc2)cc1,-1.8,7.2%,-9.4,?,.,-0.6,0.4%
CC(OC(=O)c1nn(C(C)C)c(=O)c2ccccc12)C(=O)Nc1ncc(Cl)cc1Cl (stereo not given),9.4,13.6%,-1.7,15.1%,42.2%,-18.5,7.4%
Cc1ccc(S(=O)(=O)N2CCN(C(=O)c3n[nH]c(=O)c4ccccc34)CC2)c(C)c1,.,.,3.4,?,-1.0%,-2.1,-3.8%
Cc1cc(C)n(-c2nc(-c3ccc(Cl)cc3)cs2)n1,3.6,13.3%,-2.2,11.8%,-2.4%,-24.8,-5.5%
CCCCCc1c(C)nc(N2CCc3ccccc32)[nH]c1=O,1.3,1.4%,-0.4,?,-4.2%,-13.5,-4.3%
COc1ccccc1NS(=O)(=O)c1cccc(N=C2N=C(N)c3ccccc32)c1,3.4,10.7%,10.7,-5.7%,-0.1%,0.4,-28.2%
COc1cccc(NC(=O)c2nc(S(C)(=O)=O)ncc2Cl)c1,-3.1,?,-14.5,6.1%,-1.8%,-44.1,-22.2%
COc1cccc(CNC(=O)CSCc2cnn(-c3ccccc3)c2-n2cccc2)c1,2.6,-4.3%,-7.3,?,-1.8%,-5.9,-20.4%
CN(c1ccccc1)S(=O)(=O)c1ccc(-c2ccccc2)cc1,5.2,1.8%,28.1,17.6%,-0.5%,1.9,-2.5%
Cc1sc(NC(=S)NC(=O)c2cccs2)nc1-c1ccc(CC(C)C)cc1,4.3,8.9%,-10.0,14.4%,0.1%,-1.5,-9.0%
Cn1cc(SCC(=O)NC2CCCCC2)c2ccccc21,.,20.1%,-9.1,4.2%,73.1%,-7.8,8.9%
CC(=O)Nc1ccc(S(=O)(=O)NCCOc2ccc(Cl)cc2C)cc1,-5.6,-11.1%,7.6,1.2%,.,-4.0,-6.4%
Cc1ccc(S(=O)(=O)N(C)CC(=O)N/N=C/c2ccc(C)o2)cc1,-2.4,?,9.2,-3.8%,-4.5%,-3.7,5.8%
Cc1nc(SCc2cccc(F)c2)c2oc3ccccc3c2n1,3.0,39.8µM*,4.0,18.2%[15.4 µM],-0.1%,-7.1,12.0%
COc1cc(CN(C)CC(=O)c2[nH]c(C)c(C(C)=O)c2C)ccc1OC(F)F,7.8,?,?,4.9%,-2.3%,-9.5,-8.3%
Oc1ccc2ccccc2c1CN1CCN(C/C=C/c2ccccc2)CC1,-6.2,-0.2%,-0.4,-2.3%,.,-8.6,-6.9%
CC(C)N1C(=O)c2ccccc2C1C(=O)NCCc1ccccc1 (stereo not given),-3.0,8.3%,-5.5,-0.1%,-1.0%,-11.2,9.6%
O=C(N/N=C/c1nn(-c2ccccc2)cc1-c1ccc(Cl)cc1)c1ccncc1,-0.6,12.1%,?,.,.,.,.
CCOc1ccc(-c2nnc3ccc(SCC(=O)Nc4nc5ccc(C)cc5s4)nn23)cc1,6.7,?,?,-3.0%,133.2%,0.7,28.7%
C=C(C)CCC(C)N1CCC(n2nccc2NC(=O)CCCc2ccccc2)CC1 (stereo not given),.,8.7%,9.6,15.1%,1.6%,-31.6,20.9%
COc1ccc(C(=O)NCC2OCCc3ccccc32)c(O)c1 (stereo not given),1.8,13.2%,4.4,-19.1%,?,-14.7,-17.6%
CC1CCCCC1NC(=O)c1cccc(NC2=NC3CS(=O)(=O)CC3S2)c1 (stereo not given),0.6,19.5%,8.2,-30.3%[inhibitor],0.4%,-3.0,2.0%
Cc1cc(C)n2c(SCCO)nnc2n1,-1.5,13.1%,11.3,-1.9%,.,-1.0,4.3%
CCn1cc(SCC(=O)NC2CCCC2)c2ccccc21,-1.8,7.9%,-6.3,-4.6%,2.2%,-22.2,-7.1%
O=C(O)CCC(=O)NC1CCCCCCC1,1.8,14.1%,-3.7,24.1%,-0.1%,-12.2,2.5%
Cc1nc(S(=O)(=O)c2ccc(Cl)cc2)c(N(C)C)o1,-0.8,-18.1%,-4.3,-1.5%,2.8%,-11.7,5.5%
COc1cc(C)c(S(=O)(=O)N2CCOCC2)cc1C,-0.6,8.5%,8.5,-3.7%,-0.6%,-8.4,5.9%
CCCCCNc1nc(-c2ccccc2)cs1,1.6,-0.5%,9.6,.,.,.,.
O=C(CSCc1c(Cl)cccc1Cl)Nc1cccnc1,-0.2,18.6%,16.4,-5.5%[15.4 µM],1.0%,-15.8,-10.0%
Cc1nc(-c2cccnc2)sc1C(N)=O,4.1,10.4%,3.6,?,-3.9%,-8.7,11.2%

# Single values from the list.
# Menin MLL FP FL result of Cc1cc(C)n2c(SCCO)nnc2n1 stands at -1.5
# gsp antag result of CC(C)N1C(=O)c2ccccc2C1C(=O)NCCc1ccccc1 (stereo not given) stands at 9.6%
